KCNQ2 inh – KCNQ2 potassium channel inhibitors, primary screen, cell-based, CHO-K1, FluxOR thallium flux, B-score (AID 2156); O88943; 20 min; hits give low values; only compounds with negative scores are shown here; some inactives read as strong as hits; B-score at 10 µM; 310,000 tested, 1.1% active;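 active = fluorescence ratio B-score at most minus 3 library SDs, with starting brightness B-score within 2 library SDs, cut at about -5.5 in these data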
Target sequence (O88943 whole entry, looked up): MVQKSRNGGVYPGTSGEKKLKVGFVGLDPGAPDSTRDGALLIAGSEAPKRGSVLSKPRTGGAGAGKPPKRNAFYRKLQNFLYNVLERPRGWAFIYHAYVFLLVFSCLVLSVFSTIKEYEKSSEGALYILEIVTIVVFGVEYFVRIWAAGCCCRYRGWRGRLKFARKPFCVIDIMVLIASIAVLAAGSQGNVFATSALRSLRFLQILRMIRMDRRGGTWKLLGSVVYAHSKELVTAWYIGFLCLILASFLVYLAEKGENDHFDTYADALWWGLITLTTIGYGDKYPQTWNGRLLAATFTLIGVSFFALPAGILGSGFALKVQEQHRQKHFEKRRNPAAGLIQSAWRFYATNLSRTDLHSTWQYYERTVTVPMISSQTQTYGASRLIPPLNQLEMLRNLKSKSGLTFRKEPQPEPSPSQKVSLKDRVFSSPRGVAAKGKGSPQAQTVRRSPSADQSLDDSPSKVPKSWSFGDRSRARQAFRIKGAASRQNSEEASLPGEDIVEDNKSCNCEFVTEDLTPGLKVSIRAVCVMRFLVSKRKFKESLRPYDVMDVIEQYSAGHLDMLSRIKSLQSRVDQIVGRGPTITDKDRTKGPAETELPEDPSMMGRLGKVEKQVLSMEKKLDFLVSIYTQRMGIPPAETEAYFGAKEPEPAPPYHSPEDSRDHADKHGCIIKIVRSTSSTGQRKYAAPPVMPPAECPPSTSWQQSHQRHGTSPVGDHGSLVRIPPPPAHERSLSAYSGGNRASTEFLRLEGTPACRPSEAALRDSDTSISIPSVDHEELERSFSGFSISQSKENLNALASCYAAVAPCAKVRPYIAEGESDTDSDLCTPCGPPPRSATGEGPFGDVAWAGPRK
KCNQ2 inh baseline – further read-out of KCNQ2 inh, marked with its call; B-score; measured here: initial fluorescence intensity artifact check;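 brightness before thallium and not channel activity; 0 = typical well and far values either way flag optical interference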
Starred values were filed as active, the others as inactive; i = inactive.

compound,KCNQ2 inh,KCNQ2 inh baseline
COc1ccc(-n2nc3c(c2NC(=O)c2ccc(S(=O)(=O)N4CCOCC4)cc2)CS(=O)C3)cc1 (stereo not drawn),i,1.18
COc1ccccc1OCC(O)Cn1c(Br)nc2c1c(=O)[nH]c(=O)n2C (stereo not drawn),i,-0.24
Cc1ccccc1CN1CCCC(C(=O)Nc2ccc(-c3ccn[nH]3)cc2)C1 (stereo not drawn),i,0.98
COC(=O)c1sccc1NC(=O)COc1cccc(C)c1,i,-0.4
O=C(NCC1CCCO1)C(c1ccc(F)cc1)N(C(=O)Cn1nnc(-c2ccc(F)cc2)n1)c1cccc(O)c1 (stereo not drawn),i,-0.61
O=C1c2ccccc2C(=O)N1CCCc1nc(-c2ccncc2)no1,i,-0.05
Cn1cnc2c(cnn2-c2ccccc2)c1=O,i,1.59
O=C(NC(=Nc1ccccc1)N1CCOCC1)Nc1ccccc1,i,0.02
O=C(O)c1ccc(NS(=O)(=O)c2ccc3c(c2)C(=O)c2cc(S(=O)(=O)Nc4ccc(C(=O)O)cc4)ccc2-3)cc1,i,1.21
CCOc1ccc(S(=O)(=O)NC(C)C(=O)NCc2ccc3c(c2)OCO3)cc1 (stereo not drawn),i,1.57
COc1ccc(OC)c(-n2c(-c3cccc(S(=O)(=O)N(C)C)c3)n[nH]c2=S)c1,i,-1.87
CN(/N=C/c1ccc(-c2ccc([N+](=O)[O-])cc2)o1)c1ccccc1,i,4.22
CCOC(=O)C(CC)Sc1nnc(COc2ccc(C)cc2)n1-c1ccccc1 (stereo not drawn),i,-0.85
COC(=O)c1ccc(NC(=O)C2C3C=CC(C3)C2C(=O)O)cc1 (stereo not drawn),i,2.7
COc1ccc(Cl)cc1NC(=O)C1COc2ccccc2O1 (stereo not drawn),i,2.49
CCCCc1c(O)c2cccc3c2n(c1=O)CCC3,i,-0.03
COC(=O)c1cccc(NS(=O)(=O)c2ccc(OC)cc2)c1C,i,-0.06
COc1ccc(CCNS(=O)(=O)c2cc3c4c(c2)CCN4C(=O)CC3)cc1OC,i,-0.05
COC(=O)c1ccccc1NC(=O)CSc1nc(NC(=O)c2ccccc2)c2c(C)c(C)oc2n1,i,-1.68
Cc1cc(NC(=O)CCC(=O)N(CC2CCCO2)C(C(=O)NC2CCCC2)c2ccccc2C)no1 (stereo not drawn),i,-1.12
CCc1ccc2c(c1)C(=O)c1ccccc1C2=O,i,-0.97
CCn1c2ccccc2c2cc(NC(=O)COc3ccccc3OC)ccc21,i,0.02
Cc1ccc(-n2nc3c(=O)n(CCCC(=O)NCc4ccc(Cl)cc4)nc(C)c3c2C)cc1,i,-0.22
CCCOc1ccccc1C(=O)N(Cc1cccc(Br)c1)C1CCS(=O)(=O)C1 (stereo not drawn),i,0.48
COc1ccc(-c2sc3ccc(N4CCOCC4)cc3c2-c2ccc(OC)c(F)c2)cc1,i,-0.56
O=C(O)c1cc(O)c2c(c1)[C@@H]([C@H]1c3cc(C(=O)O)cc(O)c3C(=O)c3c(O[C@@H]4O[C@H](CO)[C@@H](O)[C@H](O)[C@H]4O)cccc31)c1cccc(OC3O[C@H](CO)[C@@H](O)[C@H](O)[C@H]3O)c1C2=O (stereo partly drawn),i,-0.71
COCc1nnc(NC(=O)c2ccc(OC)cc2OC)s1,i,0.62
CSC(=NC#N)N1CCN(C(c2ccccc2)c2ccccc2)CC1,i,0.57
CCCC/C(O)=C1\C(=O)CC(C)(C)CC1=Nc1ccc(OC)cc1,i,-2.77
CCC1CN(S(=O)(=O)c2cc(-c3cc(C)no3)ccc2OC)c2cc(C)ccc2O1 (stereo not drawn),i,0.1

Continued; it opens with the 7 that closed the last part.
compound,KCNQ2 inh,KCNQ2 inh baseline
CCCOc1ccccc1C(=O)N(Cc1cccc(Br)c1)C1CCS(=O)(=O)C1 (stereo not drawn),i,0.48
COc1ccc(-c2sc3ccc(N4CCOCC4)cc3c2-c2ccc(OC)c(F)c2)cc1,i,-0.56
O=C(O)c1cc(O)c2c(c1)[C@@H]([C@H]1c3cc(C(=O)O)cc(O)c3C(=O)c3c(O[C@@H]4O[C@H](CO)[C@@H](O)[C@H](O)[C@H]4O)cccc31)c1cccc(OC3O[C@H](CO)[C@@H](O)[C@H](O)[C@H]3O)c1C2=O (stereo partly drawn),i,-0.71
COCc1nnc(NC(=O)c2ccc(OC)cc2OC)s1,i,0.62
CSC(=NC#N)N1CCN(C(c2ccccc2)c2ccccc2)CC1,i,0.57
CCCC/C(O)=C1\C(=O)CC(C)(C)CC1=Nc1ccc(OC)cc1,i,-2.77
CCC1CN(S(=O)(=O)c2cc(-c3cc(C)no3)ccc2OC)c2cc(C)ccc2O1 (stereo not drawn),i,0.1
COc1cccc(/C=N/NC(=O)c2ccncc2)c1OC(=O)c1ccc(Br)cc1,i,0.98
O=C1C2CC=CCC2C(=O)N1c1nc2n(n1)C(c1ccccc1)CC(c1ccccc1)N2 (stereo not drawn),i,-0.29
Cn1nc(C(=O)Nc2c(-c3ccccc3)nc3sccn23)c2ccccc2c1=O,i,0.34
Cc1nc(N2CCOCC2)[nH]c(=O)c1C(O)C(Cl)(Cl)Cl (stereo not drawn),i,0.7
Cc1ccc2nc(SCC(=O)Nc3ccc4c(c3)OCCO4)nc(=O)n2c1,i,1.09
NC(=O)c1cc(NC(=O)CCNS(=O)(=O)c2cccc(C(F)(F)F)c2)cc(C(N)=O)c1,i,0.69
CCn1cc(CNC(=O)C2CCC(=O)N(C3CCCCCC3)C2)cn1 (stereo not drawn),i,0.67
Cc1ccccc1NC(=O)COc1coc(CN2CCN(Cc3ccccc3)CC2)cc1=O,i,-1.24
Cc1cc(N2C(=O)C3C4CC(c5ccccc5)C(C4)C3C2=O)no1 (stereo not drawn),i,1.63
COc1cccc(Nc2nc3ccccc3nc2-n2nc(C)cc2C)c1,i,0.32
Cn1c(CNC(=O)CNS(=O)(=O)c2ccccc2)cc(=O)n(C)c1=O,i,-0.01
Cc1cc(Cl)ccc1OCCCC(=O)NCc1ccncc1,i,1.98
O=C(NCC1CCCO1)c1cc(-c2ccccc2)nc2ccc(Br)cc12 (stereo not drawn),-7.4*,-0.07*
O=[N+]([O-])c1ccc2[nH]c3c(c2c1)CCCC3O (stereo not drawn),i,2.22
Cc1nn(-c2ccccc2)cc1C(=S)Nc1ccccc1,i,1.72
Cc1c(C(=O)N(Cc2ccc(N(C)C)cc2)CC2CCCO2)oc2ccccc12 (stereo not drawn),i,-0.66
COc1ccc(OC)c(N/C(C)=C/C(=O)c2ccccc2)c1,i,1.9
CNc1ccccc1C(C)(C)c1cc(-c2cccc(OC)c2)no1,i,1.31
CC12CCC(=O)N1C(C(=O)Nc1nc(-c3cc(F)ccc3F)cs1)CS2 (stereo not drawn),i,0.51
CCC(=O)N1c2ccc(S(=O)(=O)NCCc3ccc(C)cc3)cc2CC1C (stereo not drawn),i,-0.54
COc1ccc(N2CCN(C(=O)CNC(=O)c3cccs3)CC2)cc1,i,0.26
CCOC(=O)C(C)Sc1nc2c(c(-c3cccs3)c1C#N)CCC2 (stereo not drawn),i,1.69
O=C(NC1CCCCC1)C(c1ccccc1F)N(Cc1ccco1)C(=O)Cn1nnc2ccccc21 (stereo not drawn),i,1.98
CC(=O)/C(=N/Nc1ccc(Br)cc1)N1CCCc2ccccc21,i,-1.51
Cc1[nH]nc2nc(SCC(=O)NC3CCCCC3)n(-c3ccc(Br)cc3)c(=N)c12,i,0.72
Cc1nc(-c2ccccc2)nn1-c1ccc([N+](=O)[O-])cc1,i,-0.55
COc1cccc(C(C(=O)NC(C)(C)C)N(C(=O)CCC(=O)Nc2cc(C)on2)C(C)(C)C)c1OC (stereo not drawn),i,-0.62
COc1ccc(Br)cc1C(=O)Nc1cccc(C)c1,i,0.08
O=C(Nc1ccccc1F)c1ccc(-c2cccc([N+](=O)[O-])c2)o1,i,-1.41
CC(C)Sc1nc2c(c(=O)[nH]1)C(c1cccs1)C1=C(CC(C)(C)CC1=O)N2 (stereo not drawn),i,3.04
COC(=O)c1cc2ccsc2n1Cc1cc(=O)n2ccccc2n1,i,-1.22
COC(=O)c1cc(NC(=O)CSc2nnc(CN3CCOCC3)n2C)ccc1Cl,i,0.06
COc1ccc(NC(=O)C2CCCN2C(=O)NCc2ccccc2)c(OC)c1 (stereo not drawn),i,2.13
CN1C(=O)/C(=C\c2ccc(OC(=O)c3ccco3)cc2)SC1=S,i,0.68
CC(C)CCNC(=O)C1CCC(CNS(=O)(=O)c2cccc3nsnc23)CC1 (stereo not drawn),i,-2.02
CN(CCNC(=O)c1ccc(CS(=O)(=O)c2c(Cl)cccc2Cl)o1)CCc1ccccc1,i,-1.3
CCOc1ccc(-n2c(=O)c3c4c(sc3n(CC(=O)NCc3ccco3)c2=O)CCC4)cc1,i,-1.61
O=C(Cc1cccc2ccccc12)OCn1nnc2ccccc2c1=O,i,-1.74
COC(=O)c1c(NC(=O)CCN2CCOCC2)sc2c1CCCC2,i,-0.03
O=C(c1sccc1Cl)N1CCN(Cc2ccc3c(c2)OCO3)CC1,i,-1.46
CCCn1nc(NC(=O)c2cccs2)c2cc3cccc(C)c3nc21,i,0.75
COc1ccc(S(=O)(=O)N2CCN(C(=O)C3CC3)CC2)cc1,i,1.54
O=C(/C=C/c1ccc(Cl)c([N+](=O)[O-])c1)Nc1cccc(NC(=O)c2ccco2)c1,i,-3.08
Cc1cc(C)n(-c2nc(NCCN(C)C)c3c4c(sc3n2)CCCC4)n1,i,-0.03
Cc1ccc(CSc2nnc(SCC(=O)N/N=C/C=C/c3ccccc3[N+](=O)[O-])s2)cc1,i,0.21
COc1cccc(CN2CC(C(=O)NCCCc3ccc(C)cc3)CCC2=O)c1 (stereo not drawn),i,-0.57
O=C(NCc1cccnc1)C1CC(c2cccc(Br)c2)=NO1 (stereo not drawn),i,-1.37
COc1ccccc1C(=O)CN1C(=O)NC2(CCc3ccccc32)C1=O (stereo not drawn),i,0.07
O=C(CSc1nnc(-c2ccc(OC(F)F)cc2)o1)NC(=O)NCc1ccco1,i,-0.72
O=C(Nc1cccc([N+](=O)[O-])c1)Nc1ccc2c(c1)OCCO2,i,2.44
CCCCC(=O)Oc1cc(C)[nH]c(=O)c1[N+](=O)[O-],i,-0.02
CCCCNC(=S)N/N=C/c1ccccc1F,i,0.23
COc1cccc(C2CC(c3cccs3)=NN2C(=O)CSc2nc3ccccc3s2)c1OC (stereo not drawn),i,5.44
CC(=O)OCC1(C)CN(c2ccccc2)NC1=O (stereo not drawn),i,0.51
Cc1c(NC2=C(Cl)C(=O)N(c3ccccc3)C2=O)c(=O)n(-c2ccccc2)n1C,i,-0.33
O=C(CN(C1CCCCC1)S(=O)(=O)c1ccc(Cl)cc1)NCCCO,i,-0.49
COc1ccc(NC(=O)CN2C(=O)NC3(CCCC3)C2=O)cc1,i,-0.33
Cc1cc(N/N=C/c2ccc(F)cc2)nc(-n2nc(C)cc2C)n1,i,0.83
O=C(NC(Cc1ccccc1)C(=O)N1CCCCCC1)c1ccccc1 (stereo not drawn),i,-2.47
CCC(C)N1CC23C=CC(O2)C(C(=O)OC)C3C1=O (stereo not drawn),i,0.22

The list continues.
Each structure is followed by: KCNQ2 inh, KCNQ2 inh baseline
- COCCNC(=O)C(=O)NCC1OCCN1S(=O)(=O)c1cccs1 (stereo not drawn)
  i, 0.97
- O=C(Nc1ccc(F)cc1)c1cccc(N2C(=O)C3C4CCC(C4)C3C2=O)c1 (stereo not drawn)
  i, 1.48
- CCCn1nnc(NC(=S)NC(=O)c2ccc(-c3ccc(Br)cc3)o2)n1
  i, -0.04
- Cc1cccc(C(=O)O)c1NC(=O)Cc1cccc2ccccc12
  i, -2.2
- CC(C)COc1ccc(C(=O)CCN2CCCCC2)cc1
  i, 1.87
- COc1ccc(NC(=O)CSc2nnc(COc3ccccc3)n2Cc2ccco2)cc1OC
  i, 0.22
- CCOC(=O)c1cnc(SCC(=O)NCc2ccco2)nc1N
  i, -0.02
- O=C(Nc1ccc(Cl)c(Cl)c1)N1CCC(N2CCCCC2)CC1
  i, 0.44
- CC(C)NC(=O)CC1Nc2c3ccccc3nc(=S)n2C1=O (stereo not drawn)
  i, 0.03
- O=C(CN1CCOCC1)Nc1ccccc1Sc1ccc(Cl)cc1
  i, 1.28
- O=C(CSc1nc(C2CCCCC2)n(-c2ccccc2)n1)NCC(F)(F)F
  i, 0.6
- Cc1nc2ccccc2c(=O)n1NC(=O)c1ccc([N+](=O)[O-])cc1Cl
  i, -0.66
- COC(=O)c1c(NC(=O)C2C3C=CC(CC3)C2C(=O)O)sc(C)c1C (stereo not drawn)
  i, -0.18
- CCOc1ccc(S(=O)(=O)NCc2ccccn2)c(C)c1C
  i, -1.31
- Cc1cc(C)cc(N(C(=O)c2cc3ccccc3oc2=O)C2C=CS(=O)(=O)C2)c1 (stereo not drawn)
  i, -0.08
- O=C(N/N=C/c1cn(CCOc2ccccc2)c2ccccc12)c1ccncc1
  i, 0.02
- COc1cc2nc(NC(=O)c3ccc(Cl)cc3)[nH]c(=O)c2cc1OC
  i, 1.56

Five compounds picked at random from the list so far:
Each structure is followed by: KCNQ2 inh, KCNQ2 inh baseline
- CC(C)COc1ccc(C(=O)CCN2CCCCC2)cc1
  i, 1.87
- CCOC(=O)c1cnc(SCC(=O)NCc2ccco2)nc1N
  i, -0.02
- Cc1cc(C)cc(N(C(=O)c2cc3ccccc3oc2=O)C2C=CS(=O)(=O)C2)c1 (stereo not drawn)
  i, -0.08
- O=C(Nc1ccc(F)cc1)c1cccc(N2C(=O)C3C4CCC(C4)C3C2=O)c1 (stereo not drawn)
  i, 1.48
- COC(=O)c1c(NC(=O)C2C3C=CC(CC3)C2C(=O)O)sc(C)c1C (stereo not drawn)
  i, -0.18

Bioassay records deposited in PubChem BioAssay by Johns Hopkins Ion Channel Center.

Not all compounds are listed; the hit share may differ from the screen's.
